Screening data deposited in PubChem by several laboratories.
RGS16-Gao HTS: modulators of RGS16 binding to Galphao, primary screen, biochemical, human proteins, multiplexed bead flow cytometry | bead-based flow cytometry RGS16-Galphao binding, fluorescence; actives lie on both sides | binding response (% of control), % at 10 µM | 220,000 compounds, 0.38% hits | AID 1441, 2008;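 active = below 25% or above 175%, edge rows of some plates excepted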;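 note: Galphao activated by GDP with aluminum fluoride before binding; 100% = wells without compound and 0% = beads without RGS; some results beyond the cut were filed as inactive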
Target sequence (O15492 whole entry, looked up): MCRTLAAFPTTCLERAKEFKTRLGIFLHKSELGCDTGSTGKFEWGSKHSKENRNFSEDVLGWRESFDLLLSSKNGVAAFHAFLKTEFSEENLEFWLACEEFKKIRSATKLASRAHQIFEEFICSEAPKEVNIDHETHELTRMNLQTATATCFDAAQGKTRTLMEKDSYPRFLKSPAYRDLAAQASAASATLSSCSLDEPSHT
Target sequence (P09471 whole entry, looked up): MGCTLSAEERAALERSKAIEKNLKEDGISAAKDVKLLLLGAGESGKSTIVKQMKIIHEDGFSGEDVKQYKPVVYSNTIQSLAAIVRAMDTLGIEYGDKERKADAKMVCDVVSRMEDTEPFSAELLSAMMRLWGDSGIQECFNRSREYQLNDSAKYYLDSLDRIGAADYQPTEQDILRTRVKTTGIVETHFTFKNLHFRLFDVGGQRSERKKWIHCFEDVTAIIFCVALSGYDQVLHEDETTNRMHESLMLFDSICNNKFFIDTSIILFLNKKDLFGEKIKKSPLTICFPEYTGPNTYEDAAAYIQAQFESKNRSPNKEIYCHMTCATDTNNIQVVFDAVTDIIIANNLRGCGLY
PKD1 inh: inhibitors of human PKD1 kinase, biochemical, fluorescence polarization. Serine/threonine-protein kinase D1 (Homo sapiens), Q15139. PKD1 kinase fluorescence polarization assay. inhibition, %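 (about 10 µM by stock and volumes)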. 200,000 compounds, 0.056% hits. AID 797, 2007;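 active = inhibition of 50% or more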;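 note: controls were vehicle for no effect and a reference inhibitor for full effect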
HSV augment: enhancers of HSV replication in host cells, fold increase, host cell viability. HSV replication augmentation in cells. maximum fold increase. 220,000 compounds, 0.005% hits;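 active = peak rise of 1.5-fold or more in the series; inconclusive = self-fluorescent or not available for retest; tested in PC3 cells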;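 note: first round at 10 µM; read as green reporter fluorescence; hits show the peak of a series up to 25 µM; 1 = signal of infected wells without compound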
INS promoter inh: inhibitors of insulin promoter-driven GFP, primary screen, imaging, TRM-6 cells (human fetal islet line), eGFP reporter, cell count | reporter expression induced with tamoxifen | inhibition, % at 2 µM | 130,000 compounds, 0.9% hits;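 active = inhibition above the mean plus 3 SD, with well images judged a real hit on visual review, cut at about 60% in these data, passing the limit was not always enough; inconclusive = inhibition over the cutoff but images rejected on review; inactive = inhibition not above the cutoff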
GALR2 agonist: GALR2 receptor agonists, primary screen, cell-based; Galanin receptor type 2 (Homo sapiens), O43603; GALR2-expressing cells, agonist activation read-out; activation, %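 (tested at 5 µM)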; 140,000 compounds, 0.48% hits; AID 803, 2007;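 active = above mean plus 3 SD of all compounds, about 5% in these data, not always enough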;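 note: 0% = vehicle buffer wells and 100% = reference agonist at full effect; tested in CHO reporter cells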
Target sequence (O43603 whole entry, looked up): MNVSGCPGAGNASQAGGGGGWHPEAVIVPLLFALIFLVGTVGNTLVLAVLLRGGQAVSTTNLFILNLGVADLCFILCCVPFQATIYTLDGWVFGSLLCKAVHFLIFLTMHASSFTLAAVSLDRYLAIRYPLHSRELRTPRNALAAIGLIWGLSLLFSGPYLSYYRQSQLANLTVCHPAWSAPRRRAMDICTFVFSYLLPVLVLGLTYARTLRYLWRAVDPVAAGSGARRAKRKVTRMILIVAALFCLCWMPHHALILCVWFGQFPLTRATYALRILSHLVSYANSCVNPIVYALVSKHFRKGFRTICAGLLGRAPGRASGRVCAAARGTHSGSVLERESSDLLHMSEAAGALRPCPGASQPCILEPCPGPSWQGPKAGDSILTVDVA
INS promoter inh cell count: recorded beside INS promoter inh, whose call it bears; normalized cell count, %; measured here: cell count, toxicity; reference of the scale not given here;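 cells exposed to compound for 48 h; stained nuclei by imaging scaled within each plate; lower means fewer cells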
HSV augment primary fold: further read-out of HSV augment, marked with its call; fold increase; compound at 10 µM; measured here: primary screen fold increase 10 uM; tested in PC3 cells;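 GFP signal in the first replicate; 1 = infected wells without compound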
Active calls of the source: *. Outcome played no part in choosing rows, and some 1.3% of all compounds hit somewhere here.

For CC(C)(C)C1CCc2sc(-c3nnc(CCl)o3)cc2C1 (centres undefined) the results were RGS16-Gao HTS 103, PKD1 inh -9, INS promoter inh -29 and INS promoter inh cell count 157.
For Cc1cc(NC(=O)c2ccc(Cl)cc2)no1 the results were RGS16-Gao HTS 97, PKD1 inh 9, HSV augment inactive, INS promoter inh -128, GALR2 agonist -1.0, INS promoter inh cell count 134 and HSV augment primary fold 0.84.
For Cc1ccc(C(=O)N2CCC3(CC2)Oc2ccc(F)cc2C(=O)C32CC(c3ccccc3)=NO2)s1 (centres undefined) the results were RGS16-Gao HTS 99, HSV augment inactive and HSV augment primary fold 0.69.
Screening CC(C)CCNC(=O)C(CC(C)C)N(Cc1ccc2c(c1)OCO2)C(=O)c1snc(C(N)=O)c1N (centres undefined) returned RGS16-Gao HTS 93, PKD1 inh 3, HSV augment inactive and HSV augment primary fold 0.89.
CCC(C)(C)NC(=O)CN(C(=O)c1snc(C(N)=O)c1N)c1ccc2c(c1)OCO2 was read as RGS16-Gao HTS 104, PKD1 inh -2, HSV augment inactive, INS promoter inh -9, GALR2 agonist -4.6, INS promoter inh cell count 146 and HSV augment primary fold 0.91.
`O=C(NCc1ccc(F)cc1)c1noc2c1CCCC2` gave RGS16-Gao HTS 103, PKD1 inh 9, HSV augment inactive, INS promoter inh 0, GALR2 agonist -1.8, INS promoter inh cell count 123 and HSV augment primary fold 0.88.
Screening CCOC(=O)CNC(=O)c1ccccc1 returned RGS16-Gao HTS 92, PKD1 inh -4, HSV augment inactive, INS promoter inh -27, GALR2 agonist -2.1, INS promoter inh cell count 263 and HSV augment primary fold 0.92.
For Cc1ccc(S(=O)(=O)CCc2nc3ccccc3n2CCC#N)cc1 the results were RGS16-Gao HTS 99, PKD1 inh 4, HSV augment inactive, INS promoter inh 51, GALR2 agonist -4.0, INS promoter inh cell count 86 and HSV augment primary fold 0.89.
`O=C(NCCc1ccccn1)C1CC(=O)N(Cc2ccccc2Cl)C1` (centres undefined) gave RGS16-Gao HTS 104, PKD1 inh -4, HSV augment inactive, INS promoter inh -131, GALR2 agonist -3.1, INS promoter inh cell count 96 and HSV augment primary fold 1.2.
Fc1ccc(-n2c(Cc3ccccc3)nnc2SCc2nc(-c3ccc(Cl)cc3)no2)cc1 was read as RGS16-Gao HTS 103, PKD1 inh -5, HSV augment inactive, INS promoter inh -37, GALR2 agonist -1.8, INS promoter inh cell count 77 and HSV augment primary fold 0.94.

A draw from above in order of length of the SMILES, largest number first:
For Cc1ccc(C(=O)N2CCC3(CC2)Oc2ccc(F)cc2C(=O)C32CC(c3ccccc3)=NO2)s1 (centres undefined) the results were RGS16-Gao HTS 99, HSV augment inactive and HSV augment primary fold 0.69.
`O=C(NCc1ccc(F)cc1)c1noc2c1CCCC2` gave RGS16-Gao HTS 103, PKD1 inh 9, HSV augment inactive, INS promoter inh 0, GALR2 agonist -1.8, INS promoter inh cell count 123 and HSV augment primary fold 0.88.
Screening CCOC(=O)CNC(=O)c1ccccc1 returned RGS16-Gao HTS 92, PKD1 inh -4, HSV augment inactive, INS promoter inh -27, GALR2 agonist -2.1, INS promoter inh cell count 263 and HSV augment primary fold 0.92.

Further compounds:
Screening O=C(CC1SC(=Nc2ccccc2)N(CCc2c[nH]c3ccccc23)C1=O)Nc1ccccc1F (centres undefined) returned RGS16-Gao HTS 106, PKD1 inh 0, HSV augment inactive, INS promoter inh 0, GALR2 agonist -1.8, INS promoter inh cell count 82 and HSV augment primary fold 0.82.
`CC1CCCN(C(=O)CSc2nnc(-c3ccc(S(=O)(=O)N4CCOCC4)cc3)n2C)C1` (centres undefined) gave RGS16-Gao HTS 104, PKD1 inh 1, INS promoter inh -9, GALR2 agonist -3.0 and INS promoter inh cell count 124.
Screening Cc1cc(C)c2nc(N3CCCC(C(=O)N4CCN(c5ncccn5)CC4)C3)sc2c1 (centres undefined) returned RGS16-Gao HTS 98, PKD1 inh -7, HSV augment inactive, INS promoter inh 1, GALR2 agonist -2.4, INS promoter inh cell count 65 and HSV augment primary fold 0.96.
`C/C(=C/CCC(C)[C@H]1CC[C@@]2(C)C3=C(CC[C@]12C)[C@@]1(C)CCC(=O)C(C)(C)[C@@H]1CC3)C(=O)O` (some centres undefined) gave RGS16-Gao HTS 117, PKD1 inh -1, HSV augment inactive, INS promoter inh 48, GALR2 agonist -1.0, INS promoter inh cell count 85 and HSV augment primary fold 1.
`COc1ccc(-c2cc3nc(-c4ccccc4)cc(N4CCCC(O)C4)n3n2)cc1` (centres undefined) gave RGS16-Gao HTS 104, PKD1 inh 2, HSV augment inactive and HSV augment primary fold 0.88.
`Cc1ccc(CNC(=O)C2CCCN(Cc3cnn(-c4ccccc4)c3-n3cccc3)C2)cc1` (centres undefined) gave RGS16-Gao HTS 110, PKD1 inh 9, HSV augment inactive, INS promoter inh 36, GALR2 agonist -1.4, INS promoter inh cell count 86 and HSV augment primary fold 1.4.
CCCCn1c(SCC(=O)c2ccc(OCC)cc2)nc2cc(S(N)(=O)=O)ccc21 was read as RGS16-Gao HTS 100, PKD1 inh -4, HSV augment inactive, INS promoter inh -19, GALR2 agonist -0.3, INS promoter inh cell count 123 and HSV augment primary fold 0.84.
For COc1ccc(Br)c(C(=O)Nc2ccc(F)cc2)c1 the results were RGS16-Gao HTS 103, HSV augment inactive and HSV augment primary fold 1.1.
Screening CCCn1c(=O)n(C)c(=O)c2c(SCC(=O)NC34CC5CC(CC(C5)C3)C4)nc(CC(C)C)nc21 returned RGS16-Gao HTS 59, PKD1 inh -1, HSV augment inactive, INS promoter inh 14, GALR2 agonist -1.2, INS promoter inh cell count 70 and HSV augment primary fold 1.2.
`CN(CCO)CC(O)CN(c1ccccc1)c1ccccc1` (centres undefined) gave RGS16-Gao HTS 101, HSV augment inactive and HSV augment primary fold 0.76.

The last 3 entries of the section before lead into the next:
For COc1ccc(Br)c(C(=O)Nc2ccc(F)cc2)c1 the results were RGS16-Gao HTS 103, HSV augment inactive and HSV augment primary fold 1.1.
Screening CCCn1c(=O)n(C)c(=O)c2c(SCC(=O)NC34CC5CC(CC(C5)C3)C4)nc(CC(C)C)nc21 returned RGS16-Gao HTS 59, PKD1 inh -1, HSV augment inactive, INS promoter inh 14, GALR2 agonist -1.2, INS promoter inh cell count 70 and HSV augment primary fold 1.2.
`CN(CCO)CC(O)CN(c1ccccc1)c1ccccc1` (centres undefined) gave RGS16-Gao HTS 101, HSV augment inactive and HSV augment primary fold 0.76.
Screening COc1ccc(C(CCN2CCCC2)c2c(O)cc(OC)cc2OC)cc1 (centres undefined) returned RGS16-Gao HTS 105, HSV augment inactive and HSV augment primary fold 0.72.
Screening CCOC(=O)CNC(=S)N(Cc1ccc(C)cc1)Cc1ccc(C)o1 returned RGS16-Gao HTS 102, PKD1 inh -8, HSV augment inactive, INS promoter inh -3, GALR2 agonist -0.7, INS promoter inh cell count 96 and HSV augment primary fold 0.94.
Screening CCCc1ccc(C(=O)NNc2cc(Cl)ccc2Cl)cc1 returned RGS16-Gao HTS 102, HSV augment inactive and HSV augment primary fold 1.1.
Screening COc1ccc(/C=N/NC(=O)c2nc(Cl)c(Cl)c(N)c2Cl)cc1COc1ccccc1F returned RGS16-Gao HTS 100, PKD1 inh -1, HSV augment inactive, INS promoter inh 0, GALR2 agonist 0.3, INS promoter inh cell count 123 and HSV augment primary fold 0.82.
Screening COc1ccc(N2C(=O)CC(N3CCN(c4ccc(S(=O)(=O)N5CCCC5)cc4)CC3)C2=O)cc1 (centres undefined) returned RGS16-Gao HTS 103, PKD1 inh -10, HSV augment inactive, GALR2 agonist -1.0 and HSV augment primary fold 0.91.
For CCc1ccc(NC(=O)CS(=O)CC(=O)NC(C)CCc2ccco2)cc1 (centres undefined) the results were RGS16-Gao HTS 101, PKD1 inh -8, HSV augment inconclusive and GALR2 agonist -1.4.
For CC(C)(c1ccccc1)c1ccc(OCCCN2CCNCC2)cc1 the results were RGS16-Gao HTS 103, PKD1 inh 2, HSV augment inactive and HSV augment primary fold 0.72.
CC(Sc1ccc(Cl)cc1)C(=O)Nc1ccccc1C(=O)N1CCOCC1 (centres undefined) was read as RGS16-Gao HTS 101, PKD1 inh -7, HSV augment inactive, INS promoter inh -4, GALR2 agonist -4.0, INS promoter inh cell count 97 and HSV augment primary fold 0.94.
`Cc1cccc(OCc2nnc(SC(C)C(=O)O)n2Cc2ccccc2)c1` (centres undefined) gave RGS16-Gao HTS 96, PKD1 inh 5, HSV augment inactive and HSV augment primary fold 1.
`O=C(CCNS(=O)(=O)c1ccc(Br)cc1)NC1CCCCC1` gave RGS16-Gao HTS 115, PKD1 inh 0, HSV augment inactive, INS promoter inh -50, INS promoter inh cell count 44 and HSV augment primary fold 1.
Screening FC(F)(F)c1ccc(C2[C@H]3CN(Cc4cccnc4)[C@H](c4ccccc4)C34CC2(c2ccccc2)C4)cc1 (some centres undefined) returned RGS16-Gao HTS 101, HSV augment inactive and HSV augment primary fold 1.
For Cn1c(=O)[nH]c(=O)c2c1nc(N1CCNCC1)n2CCOc1ccccc1 the results were PKD1 inh -10, HSV augment inactive, INS promoter inh 5, GALR2 agonist -0.7, INS promoter inh cell count 142 and HSV augment primary fold 0.87.
For O=C(NCCN1CCOCC1)c1c[nH]c2ccc(S(=O)(=O)N3CCOCC3)cc2c1=O the results were RGS16-Gao HTS 100, PKD1 inh 1, HSV augment inactive, INS promoter inh -28, GALR2 agonist -1.7, INS promoter inh cell count 96 and HSV augment primary fold 0.76.
`Cc1cc(C)nc(SC(C)C(=O)N/N=C/c2cccs2)n1` (centres undefined) gave RGS16-Gao HTS 104, PKD1 inh 5, HSV augment inactive, GALR2 agonist -2.8 and HSV augment primary fold 0.76.
For CC(C)COc1ccc(C(=O)OCCN2CCOCC2)c(O)c1 the results were RGS16-Gao HTS 109, PKD1 inh 4, HSV augment inactive, INS promoter inh -118, GALR2 agonist -1.4, INS promoter inh cell count 180 and HSV augment primary fold 0.93.
COc1ccc(S(=O)(=O)N2CCCCCC2)cc1C(=O)OCC(=O)NC(N)=O was read as RGS16-Gao HTS 97, PKD1 inh 4, HSV augment inactive, GALR2 agonist -2.3 and HSV augment primary fold 1.
`CC1CN(Cc2nc3c(c(=O)n(C)c(=O)n3C)n2CCc2ccccc2)CC(C)O1` (centres undefined) gave PKD1 inh -5, HSV augment inactive, INS promoter inh 76*, GALR2 agonist -1.5, INS promoter inh cell count 17* and HSV augment primary fold 0.96.
Screening COCCCNC(=O)CCNS(=O)(=O)c1ccc(C)cc1 returned RGS16-Gao HTS 94, PKD1 inh -4, HSV augment inactive, GALR2 agonist -2.4 and HSV augment primary fold 0.89.
For COc1ccc(-c2nnc3n2C(C)(C)Cc2cc(OC)c(OC)cc2-3)cc1 the results were RGS16-Gao HTS 108, PKD1 inh -9, HSV augment inactive, INS promoter inh 3, GALR2 agonist -0.9, INS promoter inh cell count 113 and HSV augment primary fold 1.1.
`c1ccc(SCCCCNC2CCCC2)cc1` gave RGS16-Gao HTS 105, PKD1 inh -4, HSV augment inactive, GALR2 agonist -0.8 and HSV augment primary fold 0.95.
Screening Cc1ccc(NC(C)C(=O)N/N=C/c2ccc([N+](=O)[O-])s2)cc1 (centres undefined) returned RGS16-Gao HTS 109, PKD1 inh 6, HSV augment inactive and HSV augment primary fold 0.96.
Cn1nc(C(C)(C)C)c(NC(=O)c2cccs2)c1C(C)(C)C was read as RGS16-Gao HTS 101, HSV augment inactive and HSV augment primary fold 1.1.
O=S(=O)(c1ccc(N2CCN(Cc3ccc4c(c3)OCO4)CC2)nc1)N1CCOCC1 was read as RGS16-Gao HTS 97, PKD1 inh 7, HSV augment inactive and HSV augment primary fold 0.97.
For CC1CCN(S(=O)(=O)c2ccc(NC(=O)Cc3cccs3)cc2)CC1 the results were RGS16-Gao HTS 92, PKD1 inh 13, HSV augment inactive, INS promoter inh 13, GALR2 agonist -1.3, INS promoter inh cell count 105 and HSV augment primary fold 0.87.
